ugtP null kill – kills S. aureus RN4220 lacking UgtP; S. aureus RN4220 ugtP deletion, OD600 growth, 16 h; some inactives read as strong as hits; growth inhibition, % (concentration not given with the values); actives 0.54% (n = 330,000); AID 1259309;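 active = z-score under -3 and OD600 up to 0.15 on both plates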;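 note: plate controls were untreated wells for no effect and antibiotic for full effect; wells of about 80 µL received 100 nL stock; the first replicate is given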
RN4220 kill – kills Staphylococcus aureus RN4220; S. aureus RN4220 growth, OD600, 16 h; actives 0.33% (n = 330,000); inhibition, % (concentration not given with the values);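 active = z-score of -3 or lower and OD600 up to 0.18 on both plates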;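 note: plate controls were untreated cells for no effect and reference antibiotic for full effect; stock transfer was 100 nL into about 80 µL; one replicate is shown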
Bead autofluor – counter-screen for toxin protease inhibitors: compound fluorescence | compound autofluorescence counterscreen, microsphere flow cytometry; hits give high values | fluorescence intensity (test concentration not listed) | AID 624483 | actives 3.1% (n = 360,000);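 active = at least 3 SD above the mean of all compounds, about 16000 in these data; inconclusive = too few beads counted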;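 note: 100 nL of 1 mM stock went into each well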
Mtb hypoxia rep – inhibitors of hypoxia-regulated fluorescent reporter in Mycobacterium tuberculosis | M. tuberculosis hypoxia-regulated fluorescent reporter, fluorescence | fluorescence inhibition, % (concentration not given with the values) | actives 0.1% (n = 300,000) | AID 1159583;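 active = 35 to 45% if threefold the growth effect, above 45% if 1.5-fold the growth effect; inactive = the rest, general growth blockers included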;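 note: wells of about 50 µL received 100 nL stock; 0% = vehicle wells and 100% = reference inhibitor wells; whole bacteria with a GFP reporter of the hypoxia response; strong numbers were not always called active; many hits fall short of the cut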
PrP UTR inh – suppresses PrP 5' UTR mRNA reporter expression; actives 0.35% (n = 340,000); inhibition, % (test concentration not listed); cell-based PrP 5' UTR mRNA reporter, plate reader;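 active = every replicate at 50% or more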;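 note: 0 = median of the neutral control wells; tested in H4 reporter cells; numbers are from one replicate; inactives centre near -14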
BJeLR viability – BJeLR cell viability loss. BJeLR (HRASV12) viability, CellTiter-Glo ATP luminescence, 48 h; reference of the scale not given here. inhibition, % (concentration not given with the values). actives 0.17% (n = 300,000). AID 1554;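 active = replicate mean above 50%; inconclusive = above 50% but judged a plate artefact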;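 note: 50 nL library stock added to about 25 µL; numbers are from one replicate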
Mtb hypoxia rep growth – recorded beside Mtb hypoxia rep, whose call it bears; growth inhibition, %; measured here: M. tuberculosis growth (absorbance);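 0% = vehicle and 100% = reference antibiotic; read after six days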
* = called active by the depositor; ? = inconclusive; nt = not tested or not shown.

SMILES	ugtP null kill	RN4220 kill	Bead autofluor	Mtb hypoxia rep	Mtb hypoxia rep growth	PrP UTR inh	BJeLR viability
Cc1cc(NC(=O)COC(=O)[C@H](Cc2c[nH]c3ccccc23)NC(=O)c2ccc(F)cc2)no1	-5	-2.4	4535	5	8	-19	-11
CCOc1ccc(Nc2nc(N)c3ccccc3n2)cc1	nt	nt	4111	nt	nt	56*	38
Cc1ccc(S(=O)(=O)N2CCCCC2)cc1C(=O)N(C)CCOc1ccccc1	9	3.2	6617	13	0	-12	-14
CC[C@]12c3[nH]c4ccc(Cl)cc4c3CCN1C(=O)[C@@H](CC(=O)NCCC1=CCCCC1)C[C@@H]2C(=O)N1CCN(C(=O)C2CC2)CC1	-10	-9.4	3891	7	9	-14	nt
O=C(O)c1cccc(NN=Cc2ccc(OC(F)(F)F)cc2)c1	2	-8.5	nt	7	6	nt	nt
Cc1noc(C)c1CSc1ccccc1C(=O)N1CCN(c2ccccc2)CC1	0	1.6	3223	-10	3	-2	-2
CCCc1c(C(=O)NN=Cc2c(OC)ccc3ccccc23)nnn1-c1nonc1N	2	6.5	nt	-2	-9	nt	nt
C(=Nn1cnnc1)c1cn(Cc2ccccc2)c2ccccc12	3	7.3	nt	7	-4	nt	nt
COC(=O)C1=C(C)N(Cc2cccnc2)C(=O)C1	4	2.7	22058*	-2	2	-5	7
CN1CCN(C(=O)c2ccc3c(c2)OCCO3)CC1	7	1.3	4011	nt	nt	-5	-5
COc1ccc(N2CCN(C(=O)c3ccc(N(C)S(=O)(=O)c4ccc(C)cc4)cc3)CC2)cc1	12	6.1	4415	7	7	-9	2
COc1ccc(N(CC(=O)N/N=C/c2ccc(N(C)C)cc2)S(=O)(=O)c2ccccc2)cc1	nt	nt	3509	nt	nt	-17	-18
COc1cccc2c1cc1c(=O)n(CC(=O)NC3CCCCC3)nc(C)n12	1	-2.6	nt	-6	-2	-25	-10
COc1cc(C)ccc1OCc1cc(C(=O)NCc2ccncc2)no1	1	-0.6	5404	-2	5	-85	-3
Cc1cc(C(=O)N/N=C/c2ccncc2)c(C)o1	nt	nt	5089	nt	nt	10	-3
Cc1cccc(S(=O)(=O)Nc2ccc(-c3nc4ccc(C)cc4s3)cc2)c1	64	-11	2029	7	-3	-117	14
CC(=O)c1cc(-c2nc3ccccc3n2C)n(C)c1	3	2.2	4321	nt	nt	-13	14
CCOc1ccc(NC(=O)CN(C)C(=O)COc2cccc3c2OC(C)(C)C3)cc1OCC	-5	-2.7	2939	-3	3	4	nt
CC(=O)C[C@@H](O)CC(=O)[C@H]1OC(=O)[C@H](C)C/C=C\Cc2ccccc21	1	5.4	3903	-13	-3	29	nt
Cc1ccc(OC(C)C(=O)N2CCc3ccccc32)cc1 (configuration not stated)	5	6.2	3577	nt	nt	-11	-2
CCOc1ccc(S(=O)(=O)N(CC(=O)NCc2cccnc2)c2ccc(C)cc2)cc1	-2	-5.9	2823	5	-3	-3	-8
Cc1ccccc1Cn1ccc(NC(=O)c2nn3cccnc3c2Cl)n1	9	1.5	4307	6	5	-26	3
O=C(O)[C@@H](c1ccccc1)N1Cc2ccccc2C1=O	-9	-14	4562	0	8	-1	4
C[C@]1(CC/C(=C/CO)CO)[C@H](CO)CC[C@@]23COC(=O)C2=CCC[C@@H]31	8	1.4	4198	nt	nt	-11	nt
Cc1cccc(-c2c(O)cc(=O)[nH]c2Cl)c1	8	1.3	2737	-5	2	-32	-1
OC(CNC1CCCC1)COCCOc1ccc(Br)cc1 (configuration not stated)	6	-1.1	4601	22	4	-21	-6
CS(=O)(=O)c1ccc(S(=O)CC(=O)Oc2ccc(Cl)cc2)c([N+](=O)[O-])c1 (configuration not stated)	-1	-1.0	nt	0	2	nt	-23
COc1ccc(Nc2nc(C)c3ccccc3n2)cc1	-3	8.4	4706	nt	nt	-75	12
O=C(O/N=C\c1ccc(N2CCCCC2)c([N+](=O)[O-])c1)c1cccc(C(F)(F)F)c1	nt	nt	2407	nt	nt	-31	0
O=C(c1ccc(F)cc1)N1CCC(C(=O)N2CCN(S(=O)(=O)c3cccc(F)c3)CC2)CC1	1	2.7	5642	1	1	3	-5
Cn1c(=O)n(CC(N)=O)c2ccccc21	-4	-13	3118	6	-2	1	-6
CCn1cc(C(=O)NCc2ccccc2)c2ccccc21	3	9.0	3964	-6	4	-18	0
CCOc1ccc2nc(NCCCNC(=O)c3cc(OC)c(OC)c(OC)c3)c(C#N)cc2c1	-2	3.5	4271	0	-7	-14	-10
COc1ccc(N(C(=O)c2cccc([N+](=O)[O-])c2)S(=O)(=O)c2ccc3c(c2)n(C)c(=O)n3C)cc1	-3	-1.5	16542*	8	6	-18	-2
COc1ccccc1N1CCN(N=Cc2ccc(O)cc2O)CC1	7	3.7	nt	3	0	nt	nt
Cc1ccc(Cl)c(OCCCN(C)Cc2ccccc2)c1	6	2.5	3611	9	0	-33	11
CCNS(=O)(=O)c1ccc(CCC(=O)N2CCC(C)CC2)cc1	8	2.4	3618	2	13	-16	0
CC(C)NC(=S)NN=C1CCCCC1C1CCCCC1 (configuration not stated)	73	-0.6	nt	2	19	nt	nt
O=C(c1ccc([N+](=O)[O-])cc1)N(Cc1ccccc1)Cc1ccccc1	1	2.6	4456	22	8	-46	nt
O=C1COc2ccc(C(=O)COC(=O)/C=C/c3cccc(F)c3)cc2N1	5	8.5	3898	-2	-3	-2	3
O=c1c2cc(NC(=S)N3CCCC3)ccc2nc2n1CCCCC2	3	3.2	4443	15	7	-10	1
CCSC1=NN1c1cc(C)nc(N)n1	0	-1.8	4073	-3	-5	-10	-4
COc1ccc(CCNc2nc(-c3ccccn3)cs2)cc1OC	nt	nt	4081	nt	nt	-19	-12
OCCNCc1cc(Br)ccc1OCc1ccccc1	3	-3.1	10275	7	7	-20	3
COC(=O)C(NC(=O)C(CC(C)C)NC(=O)C1CCC(C)CC1)C(C)C (configuration not stated)	-2	0.9	3027	7	6	0	-11
CC(C)(C)CN1C(N)=NCC1c1ccccc1 (configuration not stated)	7	5.2	nt	11	10	nt	nt
O=c1c(C/C=C/c2ccccc2)c(O)ccn1CCc1c[nH]c2ccccc12	23	-1.1	4323	2	1	-19	-10
CCOc1ccc(CCNC(=O)CCC(=O)Nc2ccc3nc(N4CCN(C)CC4)cc(C)c3c2)cc1OCC	-5	0.5	4104	3	6	-8	10
O=C(Nc1ccc(NC(=O)c2cccs2)cc1Cl)c1ccco1	4	2.4	3496	9	2	-43	2
CCN1C/C(=C/c2sccc2C)c2nc3ccccc3c(C(=O)O)c2C1	17	4.3	5395	-4	6	-14	8
O=C(CC1C[C@H](C(=O)N2CCOCC2)[C@@]2(CCC3CCCC3)c3[nH]c4ccccc4c3CCN2C1=O)NCCN1CCOCC1 (some centres not stated)	6	1.4	3755	-2	1	-15	nt
C=CCOC(=O)C1=C(C)NC(=O)NC1c1cn(-c2ccccc2)nc1-c1cccs1 (configuration not stated)	-3	5.8	9056	7	-4	2	5
O=C(Nc1ccccc1Br)c1ccc(OC(=S)N2CCOCC2)cc1	3	-5.3	4593	12	0	-79	11
O=C(Nc1ccc(Oc2ccccc2)nc1)C1CCN(Cc2cccc(F)c2)CC1	8	4.2	6183	5	2	-19	8
COc1cccc(N(CC(=O)Nc2ccc3c(c2)OCO3)S(=O)(=O)c2ccccc2)c1	-8	9.1	8576	6	2	-7	-8
COc1ccc(CC(=O)Nc2nnc(C)s2)cc1	-1	-0.1	4134	nt	nt	-18	-7
O=C(Nc1ccccc1)Nc1nnc(/C=C/c2ccccc2Cl)s1	nt	nt	2799	nt	nt	-3	-2
CCN(/N=C/c1cccs1)c1cc(=O)n(C)c(=O)[nH]1	nt	nt	4910	nt	nt	-6	-6
O=C(COC(=O)C12CC3CC(CC(C3)C1)C2)Nc1ncc(Cl)cc1Cl	3	7.2	14703	3	1	-25	16
Cc1cccc(OC(=O)c2cn(C)nc2C(F)(F)F)c1C	23	4.8	2497	nt	nt	-15	-6

Going on with the list.
SMILES	ugtP null kill	RN4220 kill	Bead autofluor	Mtb hypoxia rep	Mtb hypoxia rep growth	PrP UTR inh	BJeLR viability
C[C@H]1CN([C@@H](C)CO)C(=O)Cc2cc(NC(=O)CCC(F)(F)F)ccc2O[C@H]1CN(C)Cc1ccc(C(F)(F)F)cc1	-21	-9.6	4967	6	18	-19	nt
S=c1sc2c(N3CCOCC3)ncnc2n1-c1ccccc1	-6	3.2	5541	nt	nt	-9	15
Cc1nc(-c2c(C(=O)NNC(=O)Nc3c(C)cccc3C)noc2C)cs1	1	3.1	4897	12	7	-5	-8
O=C(NCc1ccccc1)c1ccco1	0	-7.7	2345	nt	nt	-9	-5
O=c1cc(CNc2ccc(Br)cc2)nc2sccn12	12	2.9	9419	7	4	-44	13
COC(=O)Cn1c2ccc(OC)cc2c2nc3ccccc3nc21	-4	3.4	8732	11	6	-14	-2
COc1ccc(CNC(=O)[C@@H](NC(=O)C2CCN(C(=O)[C@@H](N)CCSC)CC2)C(C)C)cc1	4	-0.3	4430	nt	nt	6	-3
O=C(O)c1ccc(C2CCCCC2)cn1	4	12	3900	3	1	-13	-8
CC(C)N(C(=O)COC(=O)CNS(=O)(=O)c1ccccc1F)c1ccccc1	1	2.3	4780	9	3	1	0
O=C(c1ccc(OC2CCN(C(=O)c3cccnc3)CC2)cc1)N1CCCCCC1	0	1.4	4626	4	11	-10	-2
COC(=O)c1ccc(CSc2nc(C(F)(F)F)c3c(c2C#N)CCC3)o1	-9	-10	2341	nt	nt	-9	-1
O=C(NN=Cc1ccccn1)c1cccnc1	5	3.8	nt	-11	-10	nt	nt
COc1ccc(C2=NOC(C(=O)N3CCCCCC3)C2)cc1OC (configuration not stated)	-3	5.1	11367	11	4	-19	8
Cc1ccc2c(c1)N(CC(=O)NC1CCCC(C)C1C)C(=O)c1cccnc1O2 (configuration not stated)	-1	-0.9	4320	nt	nt	1	-14
O=C(CNC(=O)c1ccco1)Nc1ccncc1	2	4.0	?	-4	-8	-8	-14
CN(CCCNC(=O)c1cn(C)c2ccc(S(=O)(=O)N(C)C)cc2c1=O)c1ccccc1	8	0.6	5384	nt	nt	-17	-8
S=c1[nH]nc(-c2ccccn2)n1N=Cc1cccs1	-4	1.4	nt	2	1	nt	nt
Cc1cccc(C2=NN(c3ccccc3)[C@@H](C(=O)N3CCOC3=O)[C@@H]2c2ccc(Cl)cc2)c1	28	-7.9	3517	1	-2	-24	nt
COc1ccc(CCNC(=O)C2(C)CCC(=O)N2Cc2ccc(F)cc2Cl)cc1OC (configuration not stated)	17	0.7	3532	0	6	-13	-19
Cn1c2ccccc2c2cnn(CC(=O)N3CCCCC3)c(=O)c21	13	2.9	5139	1	-1	-17	-9

Record cards, from the list above. Values in the order: ugtP null kill	RN4220 kill	Bead autofluor	Mtb hypoxia rep	Mtb hypoxia rep growth	PrP UTR inh	BJeLR viability
Cc1nc(-c2c(C(=O)NNC(=O)Nc3c(C)cccc3C)noc2C)cs1 across the screens: 1	3.1	4897	12	7	-5	-8
Cc1cccc(C2=NN(c3ccccc3)[C@@H](C(=O)N3CCOC3=O)[C@@H]2c2ccc(Cl)cc2)c1 across the screens: 28	-7.9	3517	1	-2	-24	nt
S=c1sc2c(N3CCOCC3)ncnc2n1-c1ccccc1 across the screens: -6	3.2	5541	nt	nt	-9	15
CC(C)N(C(=O)COC(=O)CNS(=O)(=O)c1ccccc1F)c1ccccc1 across the screens: 1	2.3	4780	9	3	1	0

Additional compounds follow.
SMILES	ugtP null kill	RN4220 kill	Bead autofluor	Mtb hypoxia rep	Mtb hypoxia rep growth	PrP UTR inh	BJeLR viability
CCOc1ccc(C=NNC(=O)c2cc3c(OC)cccc3[nH]2)cc1	-4	1.6	nt	-3	-9	nt	nt
COC(=O)/C=C1/N/C(=N\c2nc(C)cc(C)n2)N(c2ccc(Cl)cc2)C1=O	nt	nt	2456	nt	nt	-13	-19
Cc1cc(C)c(S(=O)(=O)CCC(C)C)c(=O)[nH]1	1	4.2	4616	7	1	-32	1
Cc1ccccc1NC(=O)Cc1nnc(SCc2ccc(Cl)c(Cl)c2)n1C	-17	-8.3	10315	-1	2	nt	-1
Cc1noc(C)c1COC(=O)C(C)NS(=O)(=O)c1ccc(Cl)c(Cl)c1 (configuration not stated)	-7	5.7	nt	-5	-1	nt	nt
Cn1cnc(S(=O)(=O)NC2CCN(Cc3ccccc3)CC2)c1	0	2.3	6541	4	0	-18	1
CC(=O)c1cccc(NC(=O)C2CCCC2)c1	-3	-11	2872	12	7	-14	-4
O=C(Nc1ccc2c(c1)OCO2)C1CCN(S(=O)(=O)c2ccc3c(c2)OCCO3)CC1	3	-0.6	9271	5	-9	-7	1

High-throughput results deposited in PubChem BioAssay by several laboratories.
